Source: PubChem BioAssay (several laboratories)
A1 inh = inhibitors of the anti-apoptotic protein A1, read as caspase activation; caspase activation, % (test concentration not listed); AID 2462; MEF A1-2A-BIM cells, Caspase-Glo 3/7 luminescence, 3 h; percent of clofoctol response, vehicle zero; 0.066% of 330,000 active;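 active = over half of replicate activation scores above 10%, or exactly half above 10 with the replicate mean above 10; inconclusive = replicate mean below 10 yet half the replicates above 10; inactive = over half of replicates below 10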;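 note: wells of about 30 µL received 50 nL stock; many hits fall short of the cut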
MLL AF4-AF9 inh = inhibitors of human MLL-AF4/AF9 interaction; P42568; AlphaScreen, biotin-AF4 peptide binding to FLAG-AF9; inhibition, % at 10 µM; 0.47% of 350,000 active; AID 651704;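 active = every replicate reaching a set inhibition limit, whatever the replicate mean, cut at about 25% in these data; inconclusive = mean inhibition reaches that limit but some replicates miss it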;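 note: 0% = plate neutral control median and 100% = total signal loss; the record names both 10 and 1 µM as test concentration; the first replicate is given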
Target sequence (P42568 whole entry, looked up): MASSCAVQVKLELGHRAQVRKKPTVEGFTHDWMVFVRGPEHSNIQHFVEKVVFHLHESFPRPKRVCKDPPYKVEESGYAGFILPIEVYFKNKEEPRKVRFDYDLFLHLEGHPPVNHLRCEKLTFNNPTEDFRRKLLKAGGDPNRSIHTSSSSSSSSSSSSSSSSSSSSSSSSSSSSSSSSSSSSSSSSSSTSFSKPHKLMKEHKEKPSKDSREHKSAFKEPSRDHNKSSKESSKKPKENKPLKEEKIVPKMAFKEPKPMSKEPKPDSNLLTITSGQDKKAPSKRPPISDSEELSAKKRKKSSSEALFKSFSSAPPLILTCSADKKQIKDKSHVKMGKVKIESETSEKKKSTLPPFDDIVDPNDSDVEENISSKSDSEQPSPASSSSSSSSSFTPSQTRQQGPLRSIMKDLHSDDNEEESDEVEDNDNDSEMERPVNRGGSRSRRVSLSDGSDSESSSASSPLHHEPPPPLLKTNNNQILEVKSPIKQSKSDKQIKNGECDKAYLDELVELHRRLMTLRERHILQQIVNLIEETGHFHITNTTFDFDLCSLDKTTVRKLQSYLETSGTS
RanGTP-Imp inh = disruptors of Ran-importin-beta complex formation – biochemical, FRET, CFP-Ran, YFP-importin-beta, homogeneous, primary screen. cell-free CFP-Ran/YFP-importin-beta FRET ratio. 1.1% of 300,000 active. inhibition, % (concentration not given with the values). AID 2216;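 active = most replicates above 15%; inconclusive = exactly half above 15%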;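 note: 0% = DMSO wells and 100% = Ran loaded with GDP instead of GTP; wells of about 40 µL received 100 nL stock; the first replicate is given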
Calb FLC = affects C. albicans growth with fluconazole | C. albicans CaCi-2 (fluconazole-resistant clinical isolate) + fluconazole, Alamar Blue growth, 48 h | growth inhibition, % (no concentration beside the values) | 0.57% of 300,000 active | AID 1979;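 active = most replicates above 75%; inconclusive = exactly half above 75%; inactive = most below 75%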;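 note: all wells also contain fluconazole at 8 µg/ml as a sub-toxic cotreatment; 0% = median of DMSO wells and 100% = median of geldanamycin control wells; wells of about 8 µL received 7.5 nL stock; the first replicate is given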
Ecoli rRNA inh = inhibitors of bacterial rRNA selective over humanized ribosomes | E. coli WT GFP vs humanized-ribosome RFP mutants, fluorescence, 24 h; active compounds read low; DMSO median 0, no signal -100 | GFP signal change (wild-type ribosome), % (no concentration beside the values) | 1.6% of 350,000 active | AID 720706;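 active = significant combined selectivity score with lowered wild-type GFP, culture density cut under 30%, mutant RFP and density less affected; inactive = any of these conditions unmet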; note: one replicate is shown; some compounds called inactive have numbers as strong as hits
Beta apoptosis = beta cell apoptosis inhibition. INS-1E cytokine-induced death, ATP luminescence, 48 h; percent of positive-control rescue, neutral wells zero. protection from apoptosis, % (test concentration not listed). 0.8% of 300,000 active;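 active = all replicates at 75% or more, or half of them and the mean; inconclusive = half reach 75% but not the mean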;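 note: 0% = cytokine-treated negative control wells and 100% = positive control rescue; higher means more ATP so stronger rescue from cytokine killing; wells of about 40 µL received 100 nL stock; the first replicate is given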
T cruzi repl = T. cruzi replication inhibition | T. cruzi beta-gal in NIH3T3, luminescence, 90 h | inhibition, % (concentration not given with the values) | 1.4% of 300,000 active;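 active = mean inhibition across valid replicates above about 55%, limit read from the data; inconclusive = mean below that limit but half or more replicates reach it; inactive = mean below it, under half of replicates reach it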;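 note: signal also drops with host cell toxicity which is not excluded here; 0% = plate median of DMSO wells and 100% = zero luminescence signal; higher percent means less beta-gal luminescence so fewer parasites; stock transfer was 50 nL into about 50 µL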
Vif A3G = inhibitors of Vif binding to APOBEC3G peptide, primary screen, biochemical, TR-FRET, GST-Vif 1-94, biotin-A3G peptide, dose response retest (AID 1117319). TR-FRET GST-Vif / biotin-A3G peptide binding; higher % means a stronger effect; test concentration not given here; strong numbers were not always called active. inhibition, %, or IC50 in µM where a hit was titrated. 0.57% of 260,000 active;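 active = above the screen mean plus three standard deviations and confirmed in dose response; inconclusive = results disagree or hit not tested in dose response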;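 note: Vif residues 1-94 fused to GST binding biotinylated APOBEC3G peptide 110-148; 0% = full assay without inhibitor and 100% = GST in place of GST-Vif; retest series ran down from 100 µM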
Ecoli rRNA inh OD600 = recorded beside Ecoli rRNA inh, whose call it bears; OD600 change, %; measured here: OD600 growth;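 optical density of the mix in the first replicate; 0 = DMSO median and -100 = no signal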
Ecoli rRNA inh RFP = second read-out of Ecoli rRNA inh, no call of its own (marks repeat the call); RFP signal change, %; measured here: RFP humanized mutant strains;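 first replicate; 0 = DMSO median and -100 = no signal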
Active calls of the source: *; ? = inconclusive; · = not tested or not shown; & = joins results of further samples.

Value order: A1 inh	MLL AF4-AF9 inh	RanGTP-Imp inh	Calb FLC	Ecoli rRNA inh	Ecoli rRNA inh OD600	Ecoli rRNA inh RFP	Beta apoptosis	T cruzi repl	Vif A3G
O=C1C(=O)N(C/C=C/c2ccccc2)c2ccccc21
→ ?	-2.3	5.9	-35	9	9	6.6	4	23	·
C=CCn1c(SCC(=O)NCC2CCCO2)nnc1-c1ccccc1 (stereo unspecified)
→ 0.6	-1.4	-1.8	-11	6	12	1.1	-5	-3	10%
Nc1ncn(-c2ncc(C(F)(F)F)cc2Cl)n1
→ 1.5	-4.9	1.0	-4	1	12	-0.2	-9	-14	-4%
COC(=O)c1ccc2c(c1)NC(=O)C(N1CCOCC1)S2 (stereo unspecified)
→ -0.2	·	-4.6	8	·	·	·	-4	8	?
O=C(CSc1nnc(-c2ccco2)o1)N1c2ccccc2CCc2ccccc21
→ -0.7	·	4.9	15	·	·	·	8	12	5%
O=C(COC(=O)/C=C/c1ccccc1)NCCC1=CCCCC1
→ -0.6	-2.6	-2.5	-12	·	·	·	-2	-8	?
COc1ccc(CNC(=O)CN2CCN(C(c3ccccc3)c3ccccc3)CC2)cc1
→ 0.3	2.5	?	-4	6	1	1.2	-4	13	18%
O=C(COc1ccccc1F)N/N=C1\CCCc2ccccc21
→ -2.9	-10	7.0	-1	-3	1	-0.9	-3	10	9%
O=C(NCCc1ccccc1)c1cccc(S(=O)(=O)N2CCCCC2)c1
→ 0.1	-2.8	-0.7	8	-2	3	0.2	3	11	·
O=C1c2cccc3cccc(c23)C(=O)N1CCc1ccccc1
→ 0.3	1.5	-0.6	-2	26	19	3.5	-1	-27	-8%
Cc1cc(C)n2nc(C(=O)N3CCCC(CNS(=O)(=O)c4cccs4)C3)cc2n1 (stereo unspecified)
→ 0.1	-0.6	5.1	?	4	8	3.1	-7	-6	-8%
COc1cc(CN2CCCC(N3CCN(c4ccc(F)cc4)CC3)C2)ccc1F (stereo unspecified)
→ 1.3	9.9	1.9	0	1	0	-2.4	-1	-2	·
CCCC(C)C(=O)Nc1nc(C)c(-c2csc(Nc3cc(OC)ccc3OC)n2)s1 (stereo unspecified)
→ 0.2	1.8	3.9	2	8	5	-5.5	3	-10	-3%
C=CCOc1ccc(NC(=O)C2CC(=O)N(C(C)C)C2)cc1 (stereo unspecified)
→ 0.4	·	-1.7	-4	·	·	·	1	7	0%
COc1ccc(C(C)NC(=S)NCc2ccc(F)cc2)cc1 (stereo unspecified)
→ 0.4	0.1	3.4	-16	-16	-12	-4.1	-10	-13	-2%
CC1=C(C(=O)Nc2ccc(F)cc2)C(c2ccncc2)C2=C(CCCC2=O)N1 (stereo unspecified)
→ -0.6	·	-3.3	-2	·	·	·	0	-14	14%
COC(=O)c1ccc2c(=O)[nH]c(COC(=O)c3c(-c4ccccc4)noc3C)nc2c1
→ 1.0	-1.6	3.2	·	12	18	-0.6	-2	5	-2%
COc1ccc(C)cc1NC(=O)NC1CCCCCCC1
→ 0.7	2.1	·	-32	17	12	2.6	-5	·	·
O=C(COc1ccc(S(=O)(=O)N2CCOCC2)cc1Cl)N1CCCC1
→ 0.6	42*	5.1	9	6	2	-3.2	-2	12	·
COc1ccc(/C=N/NC(=O)CCn2cnc(-c3ccccc3)c2-c2ccccc2)cc1
→ -0.5	16	0.9	23	-46	-50	-6.8	35	-53	-6%
Cc1ccc(CN(C)C(=O)c2ccc3c(c2)NC(=O)CS3)o1
→ 0.0	-12	2.0	0	10	12	2.0	-12	-8	?
O=C(CSc1cn(CCNC(=O)c2ccccc2F)c2ccccc12)NCC1CCCO1 (stereo unspecified)
→ 0.2	0.1	0.3	-2	5	1	-0.6	5	-7	0%
COc1ccc(S(=O)(=O)N(CC(=O)NC2CCCCC2)c2ccc(F)cc2)cc1
→ -1.2	0.6	3.8	-1	0	7	1.0	1	-4	-5%
Cc1ccc(OCC(=O)N/N=C\c2ccncc2)c(C)c1
→ 0.3	-3.3	-2.4	15	-4	-1	-4.3	-2	-5	·
Cc1nnc(NC(=O)c2cc3n(n2)C(C(F)(F)F)CC(C2CC2)N3)s1 (stereo unspecified)
→ 0.5	·	0.0	-2	·	·	·	-4	17	?
O=C(Nc1ccc2ncccc2c1)c1ccccc1Br
→ -0.1	·	-9.4	12	·	·	·	5	-6	-14%
O=C(Nc1ccncc1)Nc1ccccn1
→ -4.5	·	2.5	-8	·	·	·	0	4	?
Cc1c(NS(=O)(=O)c2ccc3c(c2)c(=O)n(C)c(=O)n3C)c(=O)n(-c2ccccc2)n1C
→ -0.6	·	-4.7	7	·	·	·	1	-7	-3%
CCOC(=O)N1CCC(NC(=O)CSCc2nc(-c3ccc(OC)cc3)oc2C)CC1
→ 0.3	-1.1	2.5	-3	0	1	0.0	4	13	-2%
COc1ccc(C(C)=O)cc1CC(=O)Nc1ccccc1-c1ccccc1
→ 0.1	-18	-1.9	-1	-5	-12	1.6	0	4	-7%

Of the compounds above, these have an aryl thioether with sulfur outside any ring.
Value order: A1 inh	MLL AF4-AF9 inh	RanGTP-Imp inh	Calb FLC	Ecoli rRNA inh	Ecoli rRNA inh OD600	Ecoli rRNA inh RFP	Beta apoptosis	T cruzi repl	Vif A3G
C=CCn1c(SCC(=O)NCC2CCCO2)nnc1-c1ccccc1 (stereo unspecified)
→ 0.6	-1.4	-1.8	-11	6	12	1.1	-5	-3	10%
O=C(CSc1nnc(-c2ccco2)o1)N1c2ccccc2CCc2ccccc21
→ -0.7	·	4.9	15	·	·	·	8	12	5%
O=C(CSc1cn(CCNC(=O)c2ccccc2F)c2ccccc12)NCC1CCCO1 (stereo unspecified)
→ 0.2	0.1	0.3	-2	5	1	-0.6	5	-7	0%

Returning to the listing, starting 2 compounds before the break.
Value order: A1 inh	MLL AF4-AF9 inh	RanGTP-Imp inh	Calb FLC	Ecoli rRNA inh	Ecoli rRNA inh OD600	Ecoli rRNA inh RFP	Beta apoptosis	T cruzi repl	Vif A3G
CCOC(=O)N1CCC(NC(=O)CSCc2nc(-c3ccc(OC)cc3)oc2C)CC1
→ 0.3	-1.1	2.5	-3	0	1	0.0	4	13	-2%
COc1ccc(C(C)=O)cc1CC(=O)Nc1ccccc1-c1ccccc1
→ 0.1	-18	-1.9	-1	-5	-12	1.6	0	4	-7%
Cc1cc(NC(=O)CSc2nnc(C(C)N(C)C)n2Cc2ccccc2)no1 (stereo unspecified)
→ -0.2	·	-2.1	-8	·	·	·	-2	2	-5%
COc1cccc(N/C(SCc2ccccc2F)=C(/C#N)C(=O)NCc2cccs2)c1
→ 0.1	·	4.6	1	·	·	·	4	19	9%
CC1CCCN(C(=O)c2ccc3c(c2)C(=O)N(CCC2=CCCCC2)C3=O)C1 (stereo unspecified)
→ 0.9	-0.7	-1.3	7	2	5	0.9	-1	6	9%
CN(CC(=O)Nc1ccccc1Cl)C(=O)CSc1nncn1C
→ -0.2	1.0	0.6	-3	-1	9	-1.1	0	-9	-5%
COc1cccc(S(=O)(=O)Nc2ccc(C(=O)N3CCOCC3)cc2)c1
→ -0.2	·	8.4	2	·	·	·	-1	2	0%
COc1ccc(C2=CSC3=C(C(=O)c4cccc(S(=O)(=O)N(C)C)c4)CCN23)cc1
→ -0.8	·	7.8	-24	·	·	·	-1	22	19%
Nn1c(Cc2ccccc2F)nnc1SCn1nnc2ccccc2c1=O
→ 0.2	·	4.8	24	·	·	·	0	3	1%
Cc1nc(C)c(C(=O)NNC(=O)Nc2ccc(Cl)cc2)s1
→ -0.9	-2.6	1.6	-1	-3	-1	-2.2	-4	-3	3%
Cc1ccc(OCc2nnc(SCC(=O)Nc3cc(C)on3)n2C)cc1
→ 0.2	·	-3.7	23	·	·	·	-7	-18	22%
O=C(CCN1C(=O)c2cccc3cccc(c23)C1=O)Nc1ccon1
→ 0.1	-2.2	2.1	-15	7	8	4.0	4	-1	-53%
O=C(Nc1ccc(S(=O)(=O)N2CCOCC2)cc1)c1cc([N+](=O)[O-])ccc1Cl
→ 1.0	2.1	?	-40	6	15	0.7	2	-79	-7%
CCc1ccc(/C=C2/C(=O)N(C)C(=S)N2CC(=O)OC)s1
→ -0.6	13	5.3	2	-7	-10	1.2	-4	-3	·
Cn1c(=O)c2c(nc(Oc3ccccc3)n2C)n(C)c1=O
→ -0.3	·	1.9	-1	·	·	·	-1	-1	-9%&2%
O=[N+]([O-])c1cccnc1N1CCC(c2cc(-c3ccc(Cl)cc3)n[nH]2)CC1
→ 0.7	·	3.2	0	·	·	·	3	46	0%
COc1ccc(CNC(=O)C(=O)NCCCn2ccnc2)cc1
→ 0.4	-2.1	3.0	10	12	-7	-14	5	-18	-5%
Cc1cc(C)nc(SCCN2CCOCC2)n1
→ -0.6	·	-1.0	-2	·	·	·	1	-5	0%
CC1CC1C(=O)OCC(=O)c1c(N)n(C)c(=O)n(C)c1=O (stereo unspecified)
→ 1.0	-2.1	2.3	-4	11	15	8.2	-1	-15	9%
Cc1nn2c(N)c(-c3ccccc3)cnc2c1-c1ccccc1
→ -0.5	0.6	?	11	3	-1	-6.1	-3	29	·
O=C(NCC(=O)N1CCCCCC1)c1ccc(Br)cc1
→ -0.1	0.2	-2.4	4	4	8	-2.8	-3	16	·
C/C(=N/NC(=O)OC(C)(C)C)c1ccco1
→ -3.6	-1.1	0.5	-20	12	10	1.0	-1	-12	-1%
Cc1nc2c3ccccc3nc(NNC(=O)CCC(=O)N3CCCC(C)C3)n2n1 (stereo unspecified)
→ 0.5	-2.5	0.6	-4	9	15	-0.9	-12	-4	·

Some of the compounds tested; the hit share may differ from the screen's.
